VDR inhibitor – blocks the human vitamin D receptor. Potency, µM, inactives show max response, negative = inhibition, hits mostly inhibitors. P11473. 400,000 compounds, 0.93% hits. VDR-SRC2-3 peptide fluorescence polarization, 2 h; active = well fitted inhibition curve with a large enough effect; inconclusive = small, poorly fitted or top-dose-only effect, or another doubt; inactive = no such curve, though single readings can be large or run the other way; note: series mostly up to about 120 µM
Target sequence (P11473 whole entry, looked up): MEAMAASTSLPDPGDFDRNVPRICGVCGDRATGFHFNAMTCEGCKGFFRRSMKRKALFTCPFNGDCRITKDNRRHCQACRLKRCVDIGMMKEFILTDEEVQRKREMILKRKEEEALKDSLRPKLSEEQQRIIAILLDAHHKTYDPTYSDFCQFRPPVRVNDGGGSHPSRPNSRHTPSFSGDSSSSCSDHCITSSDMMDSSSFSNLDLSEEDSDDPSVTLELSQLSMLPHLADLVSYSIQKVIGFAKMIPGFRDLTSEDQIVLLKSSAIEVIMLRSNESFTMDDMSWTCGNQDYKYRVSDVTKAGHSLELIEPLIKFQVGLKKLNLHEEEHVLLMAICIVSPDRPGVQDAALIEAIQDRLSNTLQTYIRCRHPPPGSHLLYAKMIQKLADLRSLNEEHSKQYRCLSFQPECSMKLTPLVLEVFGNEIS
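Reagent solutions, kept cold and dark, are dispensed first; compounds are then pinned in at 23 nl, plates briefly spun, and incubated 2 h at ambient temperature. Inhibition of VDR–SRC2-3 peptide binding is read by fluorescence polarization.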
* = called active by the depositor; ? = inconclusive; & = joins results of further samples. % is set by controls: 0 for no effect and ±100 for the full control effect; potency is the fitted concentration of half-maximal effect.

SMILES	VDR inhibitor
COC(=O)c1ccc(-c2nc(O)c(C)s2)cc1	79µM*
CN1CCN(S(=O)(=O)c2ccc(NC(=O)c3ccc(F)cc3)cc2)CC1	14%
Cc1ccc(S(=O)(=O)Nc2ccc3ccccc3c2)cc1	-4%
O=C(NNc1nc2c(F)cccc2s1)c1cc(=O)c2ccccc2o1	?
CC1(C)CC(=O)C=C(NNC(=O)c2cccnc2)C1	17%
COC(=O)c1c(NC(=O)C(C)Oc2ccc(Cl)cc2Cl)sc2c1CCCC2 (stereo not drawn)	?
CC(C)OCCCNC(=O)c1nn(C)c2c1CSc1ccccc1-2	17%
N#Cc1ccc(C(=O)Nc2nc(-c3cccs3)c(C(=O)C(F)(F)F)s2)cc1	1%
COc1ccc2c(c1)C(c1ccc(C)cc1)CC(=O)O2 (stereo not drawn)	-4%
CCC(C)CCN1C(Nc2ccccc2)=NC[C@@H]1Cc1ccccc1 (stereo partly drawn)	-5%
CCOC(=O)c1c(-c2ccc(F)cc2)csc1NC(=O)C1CC=CCC1C(=O)O (stereo not drawn)	?
Cc1ccc(NC(=O)COC(=O)c2ccc(C)c(S(=O)(=O)N3CCOCC3)c2)cc1	-2%
COc1ccc(-c2cc(C(=O)N3CCN(Cc4ccccc4)CC3)no2)cc1OC	11%
COc1ccccc1N1CCN(C(=O)CCS(=O)(=O)c2ccc3c(c2)oc(=O)n3C)CC1	8%&7%
O=C(NCc1ccccc1)c1c[nH]c2ccc(S(=O)(=O)Nc3ccc4c(c3)OCCO4)cc2c1=O	-1%
CCOc1ccccc1-c1noc(CCCC(=O)NC2CCCCC2)n1	-5%
CCOc1ccccc1Nc1nnc(SCC(=O)Nc2cccc(S(=O)(=O)NC3=NCCCCC3)c2)s1	3%
O=C(NCc1ccc(Cl)cc1)C(=O)NCC1OCCN1S(=O)(=O)c1cc(F)ccc1F (stereo not drawn)	-8%
O=C(Nc1nncs1)c1ccccc1NS(=O)(=O)c1cccs1	24%
CC(=O)OCCn1c(=O)c2cc3c(=O)n(CCOC(C)=O)c(=O)c3cc2c1=O	4%
CC(C(=O)O)n1c2ccccc2c2cnn(C)c(=O)c21 (stereo not drawn)	-14%
COc1ccc(-c2cn3nc(N4CCCC(C(=O)Nc5ccc(C)c(C)c5)C4)sc3n2)cc1 (stereo not drawn)	6%
CCOC(=O)C1CCN(C(c2cc(OC)c(OC)c(OC)c2)c2sc3nc(C)nn3c2O)CC1 (stereo not drawn)	12%
CC1(C)NC(=O)N(CCOCCOc2c(Cl)cc(Cl)cc2Cl)C1=O	9%
Cc1ccc(NS(=O)(=O)c2cccc(C(=O)NCC(c3ccco3)N3CCCC3)c2)cc1 (stereo not drawn)	-3%

Brought forward from above: two compounds, then new ones.
SMILES	VDR inhibitor
CC1(C)NC(=O)N(CCOCCOc2c(Cl)cc(Cl)cc2Cl)C1=O	9%
Cc1ccc(NS(=O)(=O)c2cccc(C(=O)NCC(c3ccco3)N3CCCC3)c2)cc1 (stereo not drawn)	-3%
O=C(/C=C/c1ccc([N+](=O)[O-])cc1)OCC(=O)N1CCCC1	-23%
Cn1cc(CN2CCC(CO)(CCCc3ccccc3)CC2)c(-c2ccccc2)n1	-8%
CCCCn1nc(NC(=O)CCC)c2cc3cc(OC)ccc3nc21	-11%
CC(C)=CCN1CCN(Cc2ccc(C#CC(C)(C)O)s2)CC1CCO (stereo not drawn)	-7%
O=C1CCC(=O)N1CNc1ccccn1	16%
CCN(C(=O)COC(=O)Cc1c[nH]c2ccccc12)C1CCS(=O)(=O)C1 (stereo not drawn)	-2%
Cn1c(-c2ccsc2)c(-c2cccs2)c2cc(-c3cccc4[nH]ccc34)ccc21	-9%
COc1ccccc1N1CCN(CC(=O)N(CC(C)C)c2c(N)n(CC(C)C)c(=O)[nH]c2=O)CC1	-10%
CN(C)S(=O)(=O)c1ccc(C(=O)OCCc2ccccc2)cc1	11%
COc1ccccc1/C=C1\SC(=S)N(Nc2nc(C)cc(C)n2)C1=O	0%
Cc1c(Cl)cccc1NC(=O)CCS(=O)(=O)c1cccc2nonc12	-6%
CCOC(=O)c1c[nH]n(-c2ccccc2)c1=O	-10%
COc1ccc(OC)c(/C=N\NC(=O)c2cc3c(ccc4ccccc43)o2)c1	9%
O=C(Nc1ccnn1C1CCN(C(=O)c2ccc(F)cc2)CC1)C1CCOC1 (stereo not drawn)	2%
Cc1nc2ccccc2n1S(=O)(=O)c1ccc(Br)cc1	4%
COc1ccc(N2C(=O)c3cc4ccccc4cc3C2=O)cc1	?
COCCCNc1ncnc2c1cnn2-c1ccc(F)cc1	7%
FC(F)(F)c1cccc(Cc2noc(CN3CCCC3)n2)c1	8%
O=C1/C(=C\c2ccco2)CCC/C1=C\c1ccco1	?
CCOc1ccc(N/C=C/C(=O)c2cc(OC)c(OC)c(OC)c2)cc1	-23%
CCOC(=O)CC(NC(=O)c1cccc2c1C(=O)N(Cc1cccnc1)C2)c1ccc(OC(C)C)cc1 (stereo not drawn)	5%
O=C(c1cccs1)N1CCN(Cc2nc3ccccc3c(=O)[nH]2)CC1	-16%
CCOc1ccc(NC(=O)Nc2cc(OCC(F)(F)F)cc(OCC(F)(F)F)c2)cc1	-4%
Cc1cccc(CC(C)NC(=O)c2oc3c(F)cccc3c2C)n1 (stereo not drawn)	10%
COc1cc(/C=C/C(=O)OCC(=O)Nc2ccc(C)cc2[N+](=O)[O-])ccc1O	-4%

Pulled one by one from the entries so far (three):
SMILES	VDR inhibitor
CCOc1ccc(NC(=O)Nc2cc(OCC(F)(F)F)cc(OCC(F)(F)F)c2)cc1	-4%
COc1ccc(N2C(=O)c3cc4ccccc4cc3C2=O)cc1	?
Cn1cc(CN2CCC(CO)(CCCc3ccccc3)CC2)c(-c2ccccc2)n1	-8%

Part of the list above in order of heavy-atom count, rising:
SMILES	VDR inhibitor
O=C1CCC(=O)N1CNc1ccccn1	16%
FC(F)(F)c1cccc(Cc2noc(CN3CCCC3)n2)c1	8%
Cn1cc(CN2CCC(CO)(CCCc3ccccc3)CC2)c(-c2ccccc2)n1	-8%
CCOC(=O)CC(NC(=O)c1cccc2c1C(=O)N(Cc1cccnc1)C2)c1ccc(OC(C)C)cc1 (stereo not drawn)	5%

Next part:
SMILES	VDR inhibitor
C=CCN1C(=O)/C(=C\c2ccco2)C(C(=O)OC)=C1C	9%
COc1ccc(C2CC(c3ccccc3Br)=NN2c2ccc(S(N)(=O)=O)cc2)cc1 (stereo not drawn)	-12%
Cc1cccc(OCC(=O)NNC(=O)c2cccs2)c1	5%
CCC(=O)NCc1ccc(-c2nc3ncccc3o2)cc1	-6%
COc1cccc(-c2ccc(NC(=O)C3CCCN(Cc4cc(C)[nH]n4)C3)cc2)c1 (stereo not drawn)	2%
COC(=O)c1ccc(C2C(C(=O)c3cc4ccccc4o3)=C(O)C(=O)N2CCN2CCOCC2)cc1 (stereo not drawn)	6%
CCN(CC)CCN1C(=O)c2oc3ccccc3c(=O)c2C1c1ccc(F)cc1 (stereo not drawn)	1%
Cn1cccc1C(=O)NNC(=O)COc1ccccc1F	-5%
COc1cccc(NC(=O)c2sc3nc(C)c(C(=O)Nc4ccc(C)cc4C)c(-c4ccc(Br)cc4)c3c2N)c1	0%
CCOc1ccc(-n2ccc(=O)c(C(=O)O)n2)cc1	5%
Cc1ccc(NC(=O)C2CCCN(S(=O)(=O)c3cccc4cccnc34)C2)c(C)c1 (stereo not drawn)	-11%
CC(C)c1nc(N2CCN(C(=O)c3ccccc3)CC2)c(C#N)c2c1COC(C)(C)C2	-8%
COc1cccc(-c2ccc(C#N)c(SCC(=O)NCc3ccco3)n2)c1	-3%
CCN(CC)CCC(=O)N1c2ccccc2CCc2ccc(NC(=O)OC)cc21	-19%
CCCCCCCC(=O)O	-20%&-1%
COc1ccccc1N(Cc1ccccc1)S(=O)(=O)c1cccc(C(=O)Nc2cccc(C)n2)c1	-18%
O=C(Nc1ccccc1)c1ccc(Br)c(S(=O)(=O)Nc2cccnc2)c1	-24%
CCOC(=O)COc1ccc2c(C#N)c3ccccn3c2c1	3%
CC1(C)Cc2cccc(OCC(=O)Nc3nccs3)c2O1	12%
C/C(=N\NC(=O)COc1ccc(C(C)(C)C)cc1)c1cc2ccccc2o1	3%
O=C1c2ccccc2C(=O)N1CC(O)COCc1ccccc1 (stereo not drawn)	-9%
CN(CC(=O)Nc1ccc(Cl)cc1)C(=O)CNC(=O)c1ccc2c(c1)OCO2	-9%
C=CCn1c(CCNC(=O)c2ccco2)nc2ccccc21	-3%
COCCCn1c(SCC(=O)N2CCOCC2)nnc1-c1ccco1	13%
O=C(C(=O)N1CCc2ccccc2C1)c1cn(CC(=O)N2CCOCC2)c2ccccc12	-27%

Following part:
SMILES	VDR inhibitor
CC(C)COC(=O)C1C(=O)CC(C)(O)C(C(=O)OCC(C)C)C1c1cccnc1 (stereo not drawn)	0%
CCc1nc(N)c(C#N)c(-c2cccc3ccccc23)c1C	11%
COc1ccccc1NC(=O)NC(=O)c1ccccc1	-4%
O=C(c1ccco1)N1CCC2(CCCN(c3ccncc3)C2)CC1	4%
COc1ccc(NC(=O)CCCn2c(=O)c3sccc3n(Cc3cccc(C)c3)c2=O)cc1	-10%
CCN(CC)C(=O)c1sc(NC(=O)Cc2ccccc2)c(C#N)c1C	13%
Cc1c2cnn(CC(=O)NC(C)C)c(=O)c2c(C)n1Cc1cccc(Cl)c1	6%
O=C(CN(Cc1ccco1)C(=O)c1nsc(Cl)c1Cl)NC1CCCCC1	-14%
Cc1ccc(C(C)C)c(OCC(=O)Nc2ccccc2N2CCN(C)CC2)c1	6%
COc1ccc(NS(=O)(=O)c2ccc(C)c(C(=O)NNC(=O)c3csc(N4CCOCC4)n3)c2)cc1	-3%
COc1ccc(-c2ccc3c(c2)S(=O)(=O)c2cccc(C(=O)NCc4cc(C)oc4C(F)(F)F)c2C3=O)cc1OC	-13%
COc1ccc(C2(c3ccc(OC)cc3)NC(=O)N(CC(=O)N3CCOCC3)C2=O)cc1	?
CCCN(CCC)Cc1c(C(=O)N/N=C/CCc2ccccc2)nnn1-c1nonc1N	-5%
Cc1ccc(CCNC(=O)CCSCc2ccccc2F)cc1	14%
O=C(NCCCNCc1ccccc1)c1ccc(/C=N/O)nc1	8%
C=CCOc1cccc(C2C(C(=O)c3cc4ccccc4o3)=C(O)C(=O)N2c2cc(C)on2)c1 (stereo not drawn)	-27%
COc1ccc(C(=O)Nc2ccc3[nH]ccc3c2)cc1OC	8%
CCOc1cccc(SCc2noc(C(=O)NC(C)C)c2C(=O)O)c1	-14%
N#CCn1c(Cc2ccccc2)nc2ccccc2c1=O	-14%
COc1cccc(OCc2cc(C3Nc4ccccc4C(=O)N3Cc3ccccc3)ccc2OC)c1 (stereo not drawn)	-4%
Cc1ccc(C(C(=O)NC(C)(C)C)N(Cc2cccnc2)C(=O)C(=O)NC2CCCCC2)o1 (stereo not drawn)	5%
CC(Cc1nnc(N)s1)c1ccccc1 (stereo not drawn)	-17%
CN(CC(=O)Nc1cccc(F)c1)C(=O)c1cc([N+](=O)[O-])ccc1N1CCCCC1	4%
Cc1ccc(C)c(NC(=O)CNS(=O)(=O)c2ccccc2)c1	8%
COc1ccc(Cc2nc3ccc(C(=O)N(C)Cc4cc(C)[nH]n4)cc3o2)cc1OC	4%

Other records.
SMILES	VDR inhibitor
Cc1ccc(OCC(=O)N2CCCC(CCC(=O)N(C)CCc3ccccn3)C2)cc1 (stereo not drawn)	0%
Cc1ccc(NC(=O)CC2S/C(=N/c3nccs3)N(C)C2=O)cc1C (stereo not drawn)	1%
O=C(O)c1nc(N2CCOCC2)nc(N2CCOCC2)n1	-14%
COc1cc(O)c2c(=O)cc(C)oc2c1CC=C(C)C	-11%&-13%
Cc1ccccc1-c1c(C)oc2cc(O)ccc2c1=O	-2%
Cc1n(Cc2ccccc2)c2cc([N+](=O)[O-])ccc2[n+]1Cc1ccccc1	-16%
Cc1cc(O)c(-c2ccnc3cc(-c4ccccc4)nn23)cc1Cl	14%
CC1(C(=O)O)NCCc2cc(O)c(O)cc21 (stereo not drawn)	-13%
Cc1ccc(NS(=O)(=O)c2c(C)nc3sccn3c2=O)cc1C	3%
NCCc1nnc(SCc2c(Cl)cccc2Cl)o1	-19%
CCOc1ccc(CCNC(=O)CCc2nnc3ccc(N4CCCC4)nn23)cc1OCC	-6%
Cc1ccc(S(=O)(=O)N2CCN(Cc3ccccc3)CC2)c(C)c1NS(C)(=O)=O	1%
Cc1ccc(N(CC(=O)NCC2CCCO2)C(=O)CNS(=O)(=O)c2ccc(Cl)cc2)cc1 (stereo not drawn)	-21%
COc1ccc(-c2noc(CSc3nnc(-c4ccc(Cl)cc4)n3C)n2)cc1OC	12%
O=C(Nc1ccc2c(c1)OCO2)c1ccc(=O)[nH]n1	-19%
COc1ccc(CCNC(=O)C2CCN(C(=O)c3ccc(C(C)(C)C)cc3)CC2)cc1OC	2%
CC(C)N1CC(O)=C(c2ccccc2)C1=N	7%
CCOC(=O)C1=C(c2ccccc2)NC(SC)=C(C#N)C1c1ccco1 (stereo not drawn)	27%
O=C(Cn1nc(-c2ccc(Cl)cc2)ccc1=O)NCCCN1CCN(Cc2ccccc2)CC1	-14%

Copied from the list.
O=C(Cn1nc(-c2ccc(Cl)cc2)ccc1=O)NCCCN1CCN(Cc2ccccc2)CC1 – VDR inhibitor: -14%
CC1(C(=O)O)NCCc2cc(O)c(O)cc21 (stereo not drawn) – VDR inhibitor: -13%
CCOC(=O)C1=C(c2ccccc2)NC(SC)=C(C#N)C1c1ccco1 (stereo not drawn) – VDR inhibitor: 27%
CC(C)N1CC(O)=C(c2ccccc2)C1=N – VDR inhibitor: 7%

Not all compounds are listed (hit frequency here may not be typical).
